Compound activity (PubChem)
Calb FLC – affects C. albicans growth with fluconazole | 300,000 compounds, 0.57% hits | C. albicans CaCi-2 (fluconazole-resistant clinical isolate) + fluconazole, Alamar Blue growth, 48 h | growth inhibition, % (concentration not given with the values) | AID 1979;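 active means most replicates above 75%; inconclusive means exactly half above 75%; inactive means most below 75%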;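 further: all wells also contain fluconazole at 8 µg/ml as a sub-toxic cotreatment; 0% = median of DMSO wells and 100% = median of geldanamycin control wells; wells of about 8 µL received 7.5 nL stock; the first replicate is given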
RanGTP-Imp inh – disruptors of Ran-importin-beta complex formation – biochemical, FRET, CFP-Ran, YFP-importin-beta, homogeneous, primary screen; 300,000 compounds, 1.1% hits; cell-free CFP-Ran/YFP-importin-beta FRET ratio; AID 2216; inhibition, % (no concentration beside the values);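 active means most replicates above 15%; inconclusive means exactly half above 15%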;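 further: 0% = DMSO wells and 100% = Ran loaded with GDP instead of GTP; wells of about 40 µL received 100 nL stock; the first replicate is given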
T cruzi repl – T. cruzi replication inhibition | 300,000 compounds, 1.4% hits | inhibition, % (test concentration not listed) | T. cruzi beta-gal in NIH3T3, luminescence, 90 h | AID 1885;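 active means mean inhibition across valid replicates above about 55%, limit read from the data; inconclusive means mean below that limit but half or more replicates reach it; inactive means mean below it, under half of replicates reach it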;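 further: signal also drops with host cell toxicity which is not excluded here; 0% = plate median of DMSO wells and 100% = zero luminescence signal; higher percent means less beta-gal luminescence so fewer parasites; stock transfer was 50 nL into about 50 µL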
Vif A3G – inhibitors of Vif binding to APOBEC3G peptide, primary screen, biochemical, TR-FRET, GST-Vif 1-94, biotin-A3G peptide, dose response retest (AID 1117319); TR-FRET GST-Vif / biotin-A3G peptide binding; higher % means a stronger effect; test concentration not given here; strong numbers were not always called active; one-dose inhibition, %; IC50 in µM for titrated hits; 260,000 compounds, 0.57% hits;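 active means above the screen mean plus three standard deviations and confirmed in dose response; inconclusive means results disagree or hit not tested in dose response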;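 further: Vif residues 1-94 fused to GST binding biotinylated APOBEC3G peptide 110-148; 0% = full assay without inhibitor and 100% = GST in place of GST-Vif; retest series ran down from 100 µM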
Bfl-1 A1 inh – inhibitors of the anti-apoptotic protein A1, read as caspase activation; MEF A1-2A-BIM cells, Caspase-Glo 3/7 luminescence, 3 h; percent of clofoctol response, vehicle zero; caspase activation, % (no concentration beside the values); 330,000 compounds, 0.066% hits; AID 2462;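 active means over half of replicate activation scores above 10%, or exactly half above 10 with the replicate mean above 10; inconclusive means replicate mean below 10 yet half the replicates above 10; inactive means over half of replicates below 10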;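 further: wells of about 30 µL received 50 nL stock; many hits fall short of the cut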
Ecoli rRNA inh – selective bacterial rRNA inhibition in E. coli | 350,000 compounds, 1.6% hits | GFP signal change (wild-type ribosome), % (no concentration beside the values) | E. coli WT GFP vs humanized-ribosome RFP mutants, fluorescence, 24 h; stronger effect = lower value; DMSO median 0, no signal -100 | AID 720706;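 active means significant combined selectivity score with lowered wild-type GFP, culture density cut under 30%, mutant RFP and density less affected; inactive means any of these conditions unmet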; further: one replicate is shown; some compounds called inactive have numbers as strong as hits
MLL AF4-AF9 inh – blocks AF4 peptide binding to human AF9 | P42568 | AlphaScreen, biotin-AF4 peptide binding to FLAG-AF9 | inhibition, % at 10 µM | 350,000 compounds, 0.47% hits;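 active means every replicate reaching a set inhibition limit, whatever the replicate mean, cut at about 25% in these data; inconclusive means mean inhibition reaches that limit but some replicates miss it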;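 further: 0% = plate neutral control median and 100% = total signal loss; the record names both 10 and 1 µM as test concentration; the first replicate is given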
Target sequence (P42568 whole entry, looked up): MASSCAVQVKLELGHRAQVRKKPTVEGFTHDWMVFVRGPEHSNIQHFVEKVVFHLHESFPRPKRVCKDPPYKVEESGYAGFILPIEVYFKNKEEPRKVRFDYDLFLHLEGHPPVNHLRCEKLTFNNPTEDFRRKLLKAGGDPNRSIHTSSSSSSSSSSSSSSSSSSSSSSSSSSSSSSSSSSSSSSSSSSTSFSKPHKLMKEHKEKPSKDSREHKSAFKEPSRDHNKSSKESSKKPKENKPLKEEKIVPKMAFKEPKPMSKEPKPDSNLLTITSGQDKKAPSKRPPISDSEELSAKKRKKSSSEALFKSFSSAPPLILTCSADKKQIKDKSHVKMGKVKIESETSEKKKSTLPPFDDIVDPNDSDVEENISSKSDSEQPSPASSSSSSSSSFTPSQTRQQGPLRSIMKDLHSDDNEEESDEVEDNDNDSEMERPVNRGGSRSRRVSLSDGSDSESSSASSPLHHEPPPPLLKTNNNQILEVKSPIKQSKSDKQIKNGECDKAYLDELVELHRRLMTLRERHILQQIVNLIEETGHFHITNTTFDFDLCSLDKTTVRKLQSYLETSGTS
Beta apoptosis – blocks beta cell apoptosis. INS-1E cytokine-induced death, ATP luminescence, 48 h; percent of positive-control rescue, neutral wells zero. protection from apoptosis, % (no concentration beside the values). 300,000 compounds, 0.8% hits;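 active means all replicates at 75% or more, or half of them and the mean; inconclusive means half reach 75% but not the mean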;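 further: 0% = cytokine-treated negative control wells and 100% = positive control rescue; higher means more ATP so stronger rescue from cytokine killing; wells of about 40 µL received 100 nL stock; the first replicate is given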
Ecoli rRNA inh OD600 – second read-out of Ecoli rRNA inh, no call of its own (marks repeat the call); OD600 change, %; measured here: OD600 growth;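 optical density of the mix in the first replicate; 0 = DMSO median and -100 = no signal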
Ecoli rRNA inh RFP – second read-out of Ecoli rRNA inh, no call of its own (marks repeat the call); RFP signal change, %; measured here: RFP humanized mutant strains;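 first replicate; 0 = DMSO median and -100 = no signal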
* hit, by the source's call; ? = inconclusive; nt = no result given; & = joins results of further samples.

SMILES	Calb FLC	RanGTP-Imp inh	T cruzi repl	Vif A3G	Bfl-1 A1 inh	Ecoli rRNA inh	Ecoli rRNA inh OD600	Ecoli rRNA inh RFP	MLL AF4-AF9 inh	Beta apoptosis
N/C(=N\OC(=O)/C=C/c1ccccc1)c1ccncc1	45	0.5	1	15%	-1.4	7	21	2.4	-0.5	5
NC1=NC(=Nc2cccc(S(=O)(=O)N3CCOCC3)c2)c2ccccc21	2	2.3	-6	9%	0.3	10	16	5.7	0.6	-6
CCOC(=O)C1=C(O)/C(=C/c2cc(OC)c(OC)c(OC)c2)SC1=Nc1ccc(OC)cc1	-6	-0.4	13	-20%&-17%	0.2	nt	nt	nt	nt	3
CC#CCN(Cc1ccco1)C(=O)C1CCC(=O)N(Cc2ccccc2F)C1 (stereo unspecified)	-2	-4.3	5	nt	-0.8	9	7	1.0	-2.2	4
COc1ccc(CCNS(=O)(=O)c2cnc(Cl)c(Br)c2)cc1OC	1	0.1	47	2%	0.8	-3	-8	-3.9	-10	-1
CCN1CCN(S(=O)(=O)c2ccc(Cl)c(C(=O)NCc3ccco3)c2)CC1	-5	5.1	-4	3%	0.0	4	-1	-1.0	0.9	-3
CCCP(=O)(CC(=O)O)c1ccccc1 (stereo unspecified)	-10	2.2	-12	3%	-0.3	nt	nt	nt	nt	1
Cc1cc(N2CCCCC2)nc(-c2ccc(Br)cc2)n1	26	-1.9	-1	nt	0.8	-28	-40	-16	-12	3
CN(/C=C1/C(=O)CNC1=O)CCO	2	3.5	-17	-2%	0.0	3	5	0.2	-0.9	nt
CCCCOC(=O)c1ccc(NC(=O)C(=O)NCc2ccco2)cc1	21	1.0	2	1%	0.1	4	5	-2.9	0.7	-3
O=C(O)c1ccc(/C=C2\SC(=S)N(NC(=O)c3ccccc3[N+](=O)[O-])C2=O)cc1	-4	4.3	10	7%	-0.4	4	3	3.4	-2.8	4
C=CCn1c(COc2cccc3cccnc23)nnc1SCC(=O)OC	-12	0.3	4	-1%	-0.3	nt	nt	nt	nt	9
O=[N+]([O-])c1ccc(Cl)c(/C=N/N2CCN(Cc3ccccc3)CC2)c1	-78	-4.1	3	-7%	0.2	nt	nt	nt	nt	nt
O=C(Cn1c(CC(=O)N2CCOCC2)nc2ccccc21)Nc1ccc2c(c1)OC(F)(F)O2	-8	-16	-3	11%	0.1	-2	1	-2.4	nt	-1
N#Cc1c(NCc2ccccc2)ccnc1NCc1cccnc1	10	-1.4	-21	-7%	-1.1	nt	nt	nt	nt	32
CC(C)[C@H](NC(=O)OC(C)(C)C)C(=O)NCC1CCC(C(=O)N[C@@H](Cc2ccccc2)C(=O)O)CC1 (stereo partly specified)	8	-1.5	-12	4%	1.5	7	17	0.5	-3.3	-4
Cc1ccc(CNC(=O)COC(=O)CN2C(=O)C3CC=CCC3C2=O)cc1 (stereo unspecified)	nt	nt	nt	nt	0.0	11	11	2.5	-3.2	-2
Cc1nc(C)c(-c2csc(Nc3ccccn3)n2)s1	32	2.6	-14	nt	-6.6	-40	-57	7.3	-1.2	nt
CCC1CCCCN1C(=O)COc1ccc(F)cc1 (stereo unspecified)	?	0.1	-1	4%	-0.3	8	5	-13	-0.8	1
CCC(=O)N1CCc2cc(S(=O)(=O)N(C)c3ccc(Br)cc3)ccc21	-7	1.1	-1	-10%	nt	6	9	-0.4	0.2	nt
COc1ccc(CCNC(=O)CSc2nc(C)nc3sccc23)cc1OC	1	4.6	-1	-5%	0.4	1	3	1.3	0.9	-3
CCOC(=O)c1cc(-c2ccc(C)cc2)n(CCC(=O)NC(C)CC)c1C (stereo unspecified)	-5	-2.6	-1	-8%	0.4	nt	nt	nt	nt	-8
CCOC(=O)CNC(=S)NN(C)C	5	0.0	-14	0%	0.2	13	4	2.2	0.7	-18
O=C(NCC(=O)N1CCCC1)c1cccs1	-2	5.2	-6	2%	0.6	6	5	-4.8	-40	-3
Cc1ccc(/C=C/C(=O)Nc2ccc(S(N)(=O)=O)cc2)o1	-7	-2.4	-27	5%	-0.4	21	17	6.6	-6.7	-7
The results go on:
SMILES	Calb FLC	RanGTP-Imp inh	T cruzi repl	Vif A3G	Bfl-1 A1 inh	Ecoli rRNA inh	Ecoli rRNA inh OD600	Ecoli rRNA inh RFP	MLL AF4-AF9 inh	Beta apoptosis
Cc1cccc(CN2CCC(Oc3ccc(C(=O)N4CCCCC4)cc3)CC2)c1	3	-1.1	-7	nt	0.6	11	4	4.2	1.9	0
O=C(Cc1c[nH]c2ccccc12)Nc1nnc(C2CC2)s1	-1	1.8	-4	-1%	-0.3	-8	1	-0.5	-0.4	2
COCCCn1nnnc1SCC(=O)Nc1nc2ccccc2s1	5	3.9	4	nt	-0.9	6	4	-3.1	-0.4	-5
O=C(CSCc1ccc(F)cc1)Nc1ccccc1C(=O)N1CCOCC1	-3	-1.9	-2	nt	0.7	nt	nt	nt	nt	-4
COc1ccc(/C=N/NC(=O)Cn2c(Cc3ccc(OC)c(OC)c3)nc3ccccc32)cc1	-4	8.8	5	nt	0.9	nt	nt	nt	nt	-9
Cc1cc(C)c2oc(=O)cc(CN3CCN(Cc4ccccc4)CC3)c2c1	5	-3.3	52	1%	0.0	7	8	-3.4	1.2	2
CCOC(=O)c1cc(-c2csc(-c3cccc(Cl)c3)n2)on1	-1	-0.1	nt	nt	-3.7	4	4	-0.9	nt	nt
CCOc1ccc(NC(=O)CC2C(=O)N(C)C(=S)N2Cc2ccco2)cc1 (stereo unspecified)	0	-0.4	-26	1%	-1.2	nt	nt	nt	nt	-7
CC(C)n1nnc(-c2ccc(OCc3ccccc3F)cc2)n1	2	-2.8	-6	nt	-7.1	-24	-23	-1.9	-9.9	3
COCC1CCN(C(=O)c2ccc3oc(Cc4ccccc4)nc3c2)C1 (stereo unspecified)	-9	1.0	3	-4%	-0.4	-7	-8	-0.3	-2.3	-5
O=C(CSc1nnc(Cc2ccccc2)n1-c1ccc(F)cc1)N1CCOCC1	-11	-1.5	15	?	-0.3	16	-3	2.8	5.2	-5
CC(=O)N1CCN(C(=O)c2ccco2)CC1	-5	4.7	-18	nt	?	10	12	-0.7	-3.9	nt
CC1CCN(CC(=O)Nc2ccc(N3CCCCCC3)cc2)CC1	-14	7.2	15	5%	0.0	2	-1	4.9	53*	2
O=C(NCCC1CCCCN1S(=O)(=O)c1ccccc1)C(=O)Nc1ccc(F)cc1 (stereo unspecified)	14	-0.4	5	-4%	-0.2	5	6	-0.7	1.5	nt
COc1ccc(C)cc1NC(=O)CSc1ccc(-c2ccccn2)nn1	nt	nt	4	nt	-0.6	-47	-69	-6.9	0.2	2
CC(=O)Nc1cccc(C(=O)O)n1	-4	0.9	-19	25%	1.2	16	9	2.2	-0.5	1
CCOCCCNC(=O)c1c[nH]c2ccc(C)cc2c1=O	9	3.4	-1	-3%	0.5	nt	nt	nt	nt	3
COc1ccccc1NS(=O)(=O)c1cc(NC(=O)Cc2n[nH]c(=O)c3ccccc23)ccc1Cl	nt	nt	nt	-5%	1.3	-12	-11	23	0.5	-9
CCC(C(=O)OC)n1cnc2scc(-c3ccc(C)c(C)c3)c2c1=O (stereo unspecified)	46	-1.9	38	5%	2.7	-12	-17	0.5	-5.1	2
CN(c1ccc(C(=O)NCC2CCCO2)cc1)S(=O)(=O)c1ccccc1 (stereo unspecified)	6	1.9	-1	26%	0.2	nt	nt	nt	nt	-1
Fc1ccc(Nc2nc(Oc3ccc4c(c3)OCO4)nc(N3CCOCC3)n2)c(F)c1	-8	3.5	22	-6%	-0.2	nt	nt	nt	nt	-2
COc1ccccc1N1CCN(c2nc3c(C)cccn3c(=O)c2C=O)CC1	24	-0.2	20	14%	-0.5	nt	nt	nt	nt	-4
O=C(CCNC(=O)Cn1ccc2ccccc2c1=O)NCCCN1CCN(c2ccc(F)cc2)CC1	6	2.2	-10	-1%	0.7	nt	nt	nt	nt	-6
COc1ccc(C(=O)O)cc1S(=O)(=O)NCc1ccncc1	nt	nt	nt	12%	0.0	8	8	-3.7	-1.8	0
CCC(c1nnnn1Cc1ccc(OC)cc1)N(CCCO)Cc1cc2cc3c(cc2[nH]c1=O)OCO3 (stereo unspecified)	0	-93	8	3%	1.1	nt	nt	nt	nt	6
Other compounds
SMILES	Calb FLC	RanGTP-Imp inh	T cruzi repl	Vif A3G	Bfl-1 A1 inh	Ecoli rRNA inh	Ecoli rRNA inh OD600	Ecoli rRNA inh RFP	MLL AF4-AF9 inh	Beta apoptosis
CC(C)OC(=O)COc1ccc(-c2ccccc2)cc1	-2	6.4	-12	-4%	0.4	nt	nt	nt	nt	-1
O=C(CCn1c(=O)oc2ccccc21)Nc1nc2ccccc2s1	-4	0.8	4	-2%	-0.2	-9	-48	-3.3	-1.9	0
O=C(CNC(=O)c1sc2ccccc2c1Cl)NC1CC1	-13	-0.3	-14	-4%	0.0	-1	-2	1.2	-0.6	-11
O=C(NCC1CCCO1)c1cc(S(=O)(=O)N2CCCC2)c(Cl)cc1Cl (stereo unspecified)	-9	0.0	3	nt	0.4	12	11	2.1	-0.2	nt
CC1(C)C2CC[C@]1(C)C(=O)N(CCCCN1CCN(c3ccccn3)CC1)C2=O	4	1.8	17	-4%	0.5	2	-2	1.1	-5.7	2
COc1ccc(/C=C/C(=O)OCc2cccc([N+](=O)[O-])c2)cc1	?	8.7	-14	nt	0.6	8	4	-0.2	1.0	1
O=c1c2ccccc2nnn1CSc1nc2ccccc2c(=O)n1CCCO	-9	-2.5	1	13%	0.2	1	-15	-10	-0.9	-5
Brc1ccc(-c2csc(N3CCOCC3)n2)cc1	-15	0.0	-6	-3%	0.0	9	7	2.3	2.4	1
COc1ccccc1CNC(=O)N[C@@H](Cc1ccccc1)C(=O)O	-14	-1.4	3	2%	-0.7	nt	nt	nt	nt	2
CC(C)c1nnc(NC(=O)C2CCN(S(=O)(=O)c3ccc(-n4cnnn4)cc3)CC2)s1	0	7.3	-5	nt	0.5	12	11	1.4	-3.9	-2
FC(F)(F)c1nnc2sc(-c3ccco3)nn12	-21	-1.0	-23	-7%	0.1	nt	nt	nt	nt	-7
O=C(COc1ccccc1[N+](=O)[O-])N/N=C/c1cccs1	-5	2.6	-9	28%	0.8	nt	nt	nt	nt	-6
CC(C)C(NC(=O)c1ccc(Cl)c([N+](=O)[O-])c1)C(=O)NCc1ccccn1 (stereo unspecified)	nt	nt	nt	-6%	0.7	1	15	-2.5	-5.0	1
OCCNCCCCOc1ccccc1F	-4	1.5	11	?	-0.2	5	11	-1.4	nt	-2
Cc1ccc(S(=O)(=O)N2C(=O)[C@@H]3Cc4ccccc4CN3C2=O)cc1	3	-3.2	-2	nt	nt	19	24	2.3	-2.0	nt
Cc1cc2c(cc1S(=O)(=O)NC1CCCCC1C)OCC(=O)N2 (stereo unspecified)	20	-0.9	-9	9%	-0.5	0	-2	1.9	-4.5	1
Cc1ccc(S(=O)(=O)NC(C)C(=O)N2CCOCCOCCOCC2)cc1 (stereo unspecified)	-5	-3.4	-13	nt	-0.6	2	0	-2.1	-1.7	-7

A portion of the library, so the mix of outcomes need not match the whole.
